Source: PubChem BioAssay
TAR Tat displ = HIV-1 TAR-Tat binding disruption; hit rate 0.6% among 100,000; z-score (no concentration beside the values); HIV-1 TAR RNA, Tat peptide displacement FRET; stronger effect = higher value; AID 1259389;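 further: score is relative to mean and SD of negative controls; some compounds called inactive have numbers as strong as hits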
CDC25B-CDK2 inh = human CDC25B-CDK2/CyclinA binding inhibition | P30305+P24941 | HTRF CDC25B-CDK2/CyclinA binding, anti-His/anti-Flag; stronger effect = higher value | z-score (concentration not given with the values) | hit rate 0.72% among 94,000 | AID 1259370;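 further: score is relative to mean and SD of negative controls; strong numbers were not always called active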
Active calls of the source: *; · = no result given.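 How the source made its calls: active means z-score from 3 up in half or more of its runs; inactive means the rest.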

Values run as follows: TAR Tat displ | CDC25B-CDK2 inh
1) O=C(Nc1ccc(F)c(Cl)c1)N1CCC(CN2CCc3ccccc3C2)CC1
 : 0.48 | ·
2) COc1cc(OC)cc(C(=O)NC2=NC(c3cc(OC)ccc3OC)CC(=O)N2)c1 (configuration not stated)
 : -0.98 | ·
3) COCCCNC(=O)c1cnc2sc(N3CCOCC3)nn2c1=O
 : 1.6 | ·
4) Cc1cc2nc(C)n(CCOc3ccccc3)c2cc1C
 : -0.58 | -0.82
5) O=S(=O)(NCC(c1ccco1)N1CCN(c2ccc(F)cc2)CC1)c1ccc(F)cc1 (configuration not stated)
 : 0.76 | ·
6) CSc1cccc(NC(=O)c2cc(S(=O)(=O)N3CCc4ccccc43)cn2C)c1
 : 1.7 | -1
7) CC(C)CSc1nc(O)cc(=O)[nH]1
 : 1.1 | -3.6
8) Cn1cccc1Cc1nnc(SCC(=O)N2CCCc3ccccc32)n1C
 : 1.9 | -0.48
9) CC(C)c1nc2sc3c(=O)[nH]cnc3c2c2c1COC(C)(C)C2
 : 2.1 | -0.7
10) O=C(Nc1ccc(F)cc1)c1ccc(CS(=O)c2ccc(Cl)cc2)o1 (configuration not stated)
 : 1.6 | ·
11) CN(C)C(=O)CSc1nc2ccccc2c(=O)n1-c1ccccc1
 : · | -1.3
12) CCC(CO)Nc1ncnc2c1oc1nc3c(cc12)COC(C)(C)C3 (configuration not stated)
 : 0.3 | ·
13) Cc1ccc(S(=O)(=O)Nc2ccc(-c3ccc(S(C)(=O)=O)nn3)cc2)cc1
 : -0.85 | ·
14) CCC(CC)C(=O)Nc1ccc2nc(NS(C)(=O)=O)sc2c1
 : -0.26 | ·
15) CCCCSc1nc(-c2ccc(OC)cc2)nc2c1Cc1c(CO)cnc(C)c1O2
 : -2.2 | ·
16) Cc1nnc(SCC(=O)Nc2nsc(-c3ccccc3C)n2)s1
 : 1.6 | -0.64
17) COc1ccc(N2CCN(C3CC(=O)N(c4ccccc4F)C3=O)CC2)cc1 (configuration not stated)
 : 2.5 | -1.1
18) Nn1c(-c2ccc(Cl)cc2)n[nH]c1=S
 : · | -0.15
19) Cc1nc(CNC(=O)[C@H]2CSCN2C(=O)NC2CCCCC2)cs1
 : 0.69 | ·
20) O=[N+]([O-])c1ccc(NCc2cccs2)nc1
 : · | -0.97

Values run as follows: TAR Tat displ | CDC25B-CDK2 inh
21) O=C(c1cccs1)N1CCCN(CC(O)COc2ccc(Cl)c(Cl)c2)CC1 (configuration not stated)
 : · | -0.05
22) Cc1ccc(-c2nnc3c4cnn(-c5ccccc5)c4ncn23)cc1
 : 1.9 | -0.75
23) CCn1c(=O)[nH]c2cc(-c3noc(COc4ccc(Cl)cc4)n3)ccc21
 : -0.3 | ·
24) Nc1nc(-c2ccccc2Cl)nn1C(=O)c1ccccc1Cl
 : -0.11 | -1.1
25) Cc1ccc(C(=O)Nc2cnc3sc4ccccc4n3c2=O)cc1
 : -0.35 | -0.08
26) Cc1ccc(Cc2nc(CCNS(=O)(=O)c3cccc4cccnc34)n[nH]2)cc1
 : 1.7 | ·
27) Cc1nc(N2CCCC2)cc(N2CCN(S(=O)(=O)c3ccc(F)cc3)CC2)n1
 : 0.54 | -2.1
28) COc1ccc(-c2nc(Cc3ccccc3Cl)no2)cc1OC
 : 1.5 | -1.3
29) COc1ccc(N2CCN(Cc3nc(N)nc(Nc4ccc(Oc5ccccc5)cc4)n3)CC2)cc1
 : 0.13 | ·
30) CN1C(=O)CC2CC1(C)Oc1ccccc12 (configuration not stated)
 : · | -2.8
31) CCOc1cc(C2c3c(-c4ccc(C)cc4)n[nH]c3C(=O)N2C)ccc1O (configuration not stated)
 : 0.93 | 2.9
32) Cc1c(C(=O)O)sc2ncnc(Nc3ccccc3)c12
 : -8.3 | ·
33) C=C1SC(=Nc2cccc(OC)c2)N(C(=O)c2ccc(Cl)cc2)C1(C)C
 : · | 0.03
34) Cn1c(=O)n(C)c2cc(Nc3cc(SCc4ccccc4)ncn3)ccc21
 : -0.23 | -1.3
35) Cc1ccccc1-c1noc2ncnc(NCc3ccc(Cl)cc3)c12
 : -0.02 | ·
36) CCOc1ccc(COC2C(C(O)CO)OC3OC(C)(C)OC32)cc1 (configuration not stated)
 : · | -1.9
37) CCN(CC)S(=O)(=O)c1ccc2c(c1)nnn2C1CCN(C(=O)NC2CCCC2)CC1
 : 2.6 | ·
38) O=C(NCC(c1ccco1)N1CCCCC1)c1sc2ccccc2c1Cl (configuration not stated)
 : 1.1 | 0.89
39) CCCCSC1=C(C#N)C(c2ccco2)C(C(=O)OCC)=C(c2ccccc2)N1 (configuration not stated)
 : 2 | 0.27
40) CCOC(=O)C(Cc1c[nH]c2ccccc12)NC(=O)c1cc2ccccc2oc1=O (configuration not stated)
 : · | -1.4

Values run as follows: TAR Tat displ | CDC25B-CDK2 inh
41) COc1cc(C2CC(=O)C3=C(C2)Nc2ccccc2NC3c2ccncc2)cc(OC)c1OC (configuration not stated)
 : · | -0.83
42) COc1ccc(-c2nc(-c3ccc(C)nc3OC)no2)cc1OC
 : -0.03 | -2
43) CCOC(=O)c1noc2nc(C)nc(N3CCN(c4ccccc4)CC3)c12
 : 0.17 | ·
44) CC(C)(C)C1CCc2c(sc3nc(CCC(=O)NCc4ccco4)[nH]c(=O)c23)C1 (configuration not stated)
 : -0.1 | ·
45) O=C1CSC(c2cccnc2)N1CCN1C(=O)CSC1c1cccnc1 (configuration not stated)
 : · | -1.9
46) CC1CSc2ccc(S(=O)(=O)Nc3nccs3)cc2NC1=O (configuration not stated)
 : 0.2 | ·
47) CN(C)S(=O)(=O)c1ccc2nc(NC(=O)COc3ccc4ccccc4c3)sc2c1
 : 0.79 | ·
48) Fc1ccccc1-n1ncc2c1ncn1nc(Cc3ccccc3)nc21
 : 1.5 | -0.9
49) CC1(C)SC2C(NC(=O)COc3ccccc3)C(=O)N2C1C(=O)O (configuration not stated)
 : -0.82 | -0.01
50) Cc1c(C(=O)Nc2ccc(C(C)C)cc2)sc2nc3n(c(=O)c12)CCC3
 : 3.8 | ·
51) CCCC1=NN2C(=N)/C(=C/c3ccccc3OS(=O)(=O)c3ccccc3)C(=O)N=C2S1
 : · | -3
52) COc1ccc2cc3c(nc2c1)N(S(=O)(=O)c1ccccc1)CC3
 : -0.31 | -2.6
53) CC1CCCN(CCCNc2ncnc3onc(-c4ccc(F)cc4)c23)C1 (configuration not stated)
 : -0.22 | ·
54) Cc1ccc(Nc2c(-c3cc(C)c(C)cc3C)c(=O)c2=O)cc1C
 : 1.2 | ·
55) CCOC(=O)CCc1nc2ccccc2[nH]1
 : 0.86 | 1.8
56) N#Cc1cc(-c2ccccc2)oc1NC(=O)c1cccs1
 : · | -2.7
57) CCOC(=O)c1c(C)oc2cc(Br)c(OCC(=O)OCc3ccccc3)cc12
 : 1.3 | -4.2
58) Cc1ccc(C(=O)COC(=O)c2ccc3c(c2)C(=O)N(c2cccc4ccccc24)C3=O)cc1[N+](=O)[O-]
 : · | -2.4
59) Cc1ccc(OCCOc2ccc(Oc3nc(N(C)C)nc(N(C)C)n3)nn2)cc1
 : 0.08 | -0.32
60) CC1=CC(C)(C)Nc2ccc(OC(=O)CN3C(=O)c4cccc5cccc(c45)C3=O)cc21
 : -1.6 | -1.9

Values run as follows: TAR Tat displ | CDC25B-CDK2 inh
61) CC(C)(C)C(=O)N1CCCN(c2ccc([N+](=O)[O-])cn2)CC1
 : · | -0.74
62) COC(=O)c1sccc1NNC(=O)CC#N
 : · | -0.18
63) NC(=O)c1cc2c(c([N+](=O)[O-])c1)-c1c(cc(C(N)=O)cc1[N+](=O)[O-])C2=O
 : · | -3
64) CN(C)c1cccc(N2C(=S)SC3CS(=O)(=O)CC32)c1 (configuration not stated)
 : -0.67 | -1.7
65) Cn1c2c(c(=O)n(C)c1=O)C(c1ccc(Br)cc1)C1=C(N2)c2ccccc2C1=O (configuration not stated)
 : -0.08 | -2.2
66) O=C(NC1CCCCC1)c1ccc(CS(=O)c2ccccc2Cl)o1 (configuration not stated)
 : 0.68 | ·
67) COc1ccc2nc(NC(=O)c3nc(SC(C)C)ncc3Cl)sc2c1
 : 0.91 | -0.65
68) CC1=CC(C)(C)Nc2ccc(OC(=O)Cc3cccc4ccccc34)cc21
 : -6.4 | -0.1
69) CCCn1cc(S(=O)(=O)c2cccc(Cl)c2)c(=O)c2cc(F)c(N(CC)CC)cc21
 : 1.3 | ·
70) CCN(CC)c1ccc(NS(=O)(=O)c2cn(C)cn2)c(C)c1
 : 2.9 | ·
71) CCn1c(SCc2cc(=O)n3cc(Br)ccc3n2)nc2ccsc2c1=O
 : · | -1.4
72) Cn1c(=O)c(=O)n(C)c2cc(S(=O)(=O)N3CCN(c4cccc(Cl)c4)CC3)ccc21
 : 2.6 | -0.71
73) O=C(CCCN1CCSc2ccccc21)Nc1nccs1
 : -0.65 | ·
74) COc1ccc(OC(=O)c2cc(-c3ccc(OC)cc3)on2)cc1
 : 0.7 | -1.5
75) O=[N+]([O-])c1cccnc1Sc1ncc2ccccn12
 : · | -3.2
76) Cc1cc(C)n(CCc2nc3c4ccccc4[nH]c(=O)n3n2)n1
 : · | 0.92
77) N#Cc1c(-c2ccccc2)c(-c2ccccc2)nn(CC(=O)N/N=C/c2cccs2)c1=O
 : · | -1.1
78) CC(C)c1ccc(S(=O)(=O)c2ccc(C(=O)O)cn2)cc1
 : 0.44 | 0.33
79) O=C(Cn1c(=O)oc2cc(Cl)ccc21)NCc1ccco1
 : -0.01 | ·
80) CN1C(=O)CSc2ccc(NC(=O)Nc3cccnc3)cc21
 : 0.7 | 19*

Values run as follows: TAR Tat displ | CDC25B-CDK2 inh
81) CCCCN(C1CCS(=O)(=O)C1)S(=O)(=O)c1ccc(Cl)cc1 (configuration not stated)
 : 2.6 | -0.7
82) CCN(c1ccccc1)c1ncnc2c1cnn2-c1ccc(Cl)cc1
 : 1.1 | ·
83) CCOc1ccc2nc(-n3nc(C)c4c3NC(=O)CC4c3ccncc3)sc2c1 (configuration not stated)
 : 1.9 | ·
84) Cc1nnc2c(NCc3ccccc3)nc3ccc(C(=O)c4ccccc4)cc3n12
 : 0.54 | -1.5
85) Cc1nc(-c2ccc(S(=O)(=O)N3CCN(Cc4ccc5c(c4)OCO5)CC3)cc2)co1
 : -0.14 | ·
86) Cc1ccc(OCc2cc(=O)n3nc(C)sc3n2)cc1
 : 5.4 | -2
87) COc1cccc(Nc2nc(N3CC(C)OC(C)C3)nc3c2cnn3C)c1 (configuration not stated)
 : 1.4 | ·
88) NC(=O)CN1c2ccc(Br)cc2-c2ccccc2S1(=O)=O
 : 1.4 | -1.6
89) Cc1cc(=O)n(Cc2ccc3nonc3c2)c2c1c(C)nn2C
 : 0.6 | ·
90) O=S(=O)(Nc1cccc(-c2ccc(N3CCCC3)nn2)c1)c1ccc(Br)cc1
 : 1.2 | ·
91) Nc1nonc1C(=O)NCCNC(=O)c1cccc(Br)c1
 : 0.46 | 1.6
92) CN1CCOc2ccc(S(=O)(=O)NC3CCCC3)cc21
 : 1.4 | ·
93) COCCCn1c2c(c(=O)[nH]c1=O)C(c1ccc(C(=O)O)cc1)C1=C(N2)c2ccccc2C1=O (configuration not stated)
 : -2.7 | -1.1
94) N#CC1=C2N=C(N)c3ccccc3N2C2=C(C(=O)CC(c3ccccc3)C2)C1c1cccnc1 (configuration not stated)
 : -2 | -1.4
95) S=P(N1CC1)(N1CC1)N1CC1
 : 1.2 | ·
96) COc1ccccc1OCCN1CCCn2c1nc1ccccc1c2=O
 : 1.4 | 2
97) Cc1ccc(CN2CCN(C3CCCC(C)C3)CC2)cc1 (configuration not stated)
 : 0.01 | -1.4
98) CNc1ncnc2c1c(-c1ccccc1)cn2-c1ccc(OC)cc1
 : -0.27 | -0.86
99) O=C1CC(=O)Nc2cc(S(=O)(=O)N3CCSc4ccccc43)ccc2N1
 : 0.99 | ·
100) Cn1c(=O)c2c(-c3ccc(Cl)cc3)c(NCc3ccccc3)oc2n(C)c1=O
 : 1.5 | ·

Values run as follows: TAR Tat displ | CDC25B-CDK2 inh
101) O=C(Cn1nc2c3cc(F)ccc3n(Cc3ccccc3F)cc-2c1=O)Nc1ccc2c(c1)OCO2
 : 0.02 | ·
102) O=C(NCc1ccc2c(c1)OCO2)C1=Cc2cc(-c3ccccc3)ccc2OC1
 : 1 | ·
103) COc1ccccc1C1CCN(C(=O)[C@@H](C)N2CCN(c3ccc(C(F)(F)F)cn3)CC2)CC1
 : · | -1.2
104) Cc1cc(-c2noc(-c3cccs3)n2)no1
 : · | -2.7
105) COc1ccc(C2C3COC(C)(C)CC3=NN2C(C)=O)cc1 (configuration not stated)
 : 1.3 | -0.66
106) CCCC12CN3CC(CCC)(CN(C1)C3c1ccc(O)cc1)C2=O (configuration not stated)
 : 0.19 | 0.46
107) COc1cc(C2c3c(oc4ccccc4c3=O)C(=O)N2c2ccccn2)ccc1OCCC(C)C (configuration not stated)
 : 1.9 | -1.9
108) Cc1ccc2nc(N/N=C/c3ccc4ncccc4c3)nc(-c3ccccc3)c2c1
 : · | 0.45
109) Cc1c2c(nc3c(C(=O)NC4CCCC(C)C4C)cnn13)CCCC2 (configuration not stated)
 : · | -0.97
110) CCOc1ccc2nc(NC(=O)Nc3ccccc3OCC)sc2c1
 : 0.49 | -2.9
111) Cn1c(/C=C/c2ccccc2)nc2ccccc21
 : 0.07 | -1.6
112) Cn1c(=O)c(NCCc2ccccc2)c2c3c(cccc31)C(=O)c1ccccc1-2
 : -6.9 | -0.75
113) COc1ccc(-n2c(C)c(C(C)=O)c3cc(O)ccc32)cc1
 : · | 5.8
114) O=C(NCC(c1ccco1)N1CCCC1)c1ccc(Br)cc1 (configuration not stated)
 : -1.5 | -1.1
115) COCCN1C=C(C(=O)OC)C(c2cccs2)C(C(=O)OC)=C1
 : · | -1.8
116) CC1CC(C)CN(C(=O)Cn2ncc3ccc(Cl)cc32)C1 (configuration not stated)
 : 0.71 | -1.3
117) c1ccc2c(c1)nnn2Cc1nnc2sc(-c3ccc4c(c3)OCO4)nn12
 : 0.09 | -1.9
118) CN1C(=O)C2CCCCN2c2ccc(C(=O)N3CCCCC3)cc21 (configuration not stated)
 : 2.4 | ·
119) O=S(=O)(O)Oc1c[nH]c2ccccc12
 : · | -1.4
